TDP1 inh – inhibitors of human tyrosyl-DNA phosphodiesterase TDP1; Q9NUW8; recombinant TDP1, AlphaScreen DNA substrate cleavage; Potency, µM (series often up to 130 µM), for the others: top-dose activity change, negative = inhibition, hits mostly inhibitors; actives 0.28% (n = 350,000); AID 485290; further: nearly all actives have a fitted effect of over 40% in size
Target sequence (Q9NUW8 whole entry, looked up): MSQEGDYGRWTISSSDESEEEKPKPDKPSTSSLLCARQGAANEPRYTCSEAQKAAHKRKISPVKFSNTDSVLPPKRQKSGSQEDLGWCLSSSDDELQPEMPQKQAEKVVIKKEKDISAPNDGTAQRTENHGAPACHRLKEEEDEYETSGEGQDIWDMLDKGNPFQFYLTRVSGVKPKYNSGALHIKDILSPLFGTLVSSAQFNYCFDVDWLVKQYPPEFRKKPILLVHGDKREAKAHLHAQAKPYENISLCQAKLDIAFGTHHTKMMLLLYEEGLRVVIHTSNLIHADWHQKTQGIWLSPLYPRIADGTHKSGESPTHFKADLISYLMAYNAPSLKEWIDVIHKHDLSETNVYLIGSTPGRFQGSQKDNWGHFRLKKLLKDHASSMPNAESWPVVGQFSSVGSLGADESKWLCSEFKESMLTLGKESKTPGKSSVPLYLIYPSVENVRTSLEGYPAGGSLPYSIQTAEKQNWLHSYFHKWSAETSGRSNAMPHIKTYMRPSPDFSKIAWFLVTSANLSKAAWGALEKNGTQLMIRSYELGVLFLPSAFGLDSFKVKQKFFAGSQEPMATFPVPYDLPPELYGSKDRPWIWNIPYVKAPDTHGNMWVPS
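Enzyme-compound mixtures sat 15 min at room temperature, followed by a 5 min reaction with 15 nM final substrate and 10 min with AlphaScreen beads. Recombinant human Tdp1 was used at 1 nM final.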
FEN1 inhibitor – inhibitors of human flap endonuclease 1 | P39748 | Recombinant FEN1 flap cleavage, fluorescence, 15 min | Potency, µM (top dose mostly 114 µM), inactives show at the top dose activity change, negative = inhibition, most hits filed as inhibitors | actives 0.35% (n = 390,000) | AID 588795; further: nearly all actives have a fitted effect of over 65% in size
Target sequence (P39748 whole entry, looked up): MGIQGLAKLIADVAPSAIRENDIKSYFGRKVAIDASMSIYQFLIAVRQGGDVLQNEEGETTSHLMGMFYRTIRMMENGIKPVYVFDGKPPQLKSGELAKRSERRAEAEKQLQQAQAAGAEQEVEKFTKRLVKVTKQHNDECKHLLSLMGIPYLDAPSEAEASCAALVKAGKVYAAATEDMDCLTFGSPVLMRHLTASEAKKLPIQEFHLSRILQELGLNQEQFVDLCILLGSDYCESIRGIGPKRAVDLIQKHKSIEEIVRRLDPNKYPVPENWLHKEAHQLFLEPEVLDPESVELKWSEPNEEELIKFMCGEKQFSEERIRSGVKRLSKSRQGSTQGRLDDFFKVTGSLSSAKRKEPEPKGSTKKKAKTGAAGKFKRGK
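Steps: FEN1 (10 nM) dispensed; compound added by pin tool; 15 min at room temperature; substrate added to 50 nM final; reads at 0 min and 15 min; data normalized and fitted (four-parameter Hill).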
* hit, by the source's call; ? = inconclusive; / = not tested or not shown; [ ] = another dose, or the depositor's remark. The call rests on the fitted dose curve; in most records, active means well fitted inhibition curve with a large enough effect; inconclusive means small, poorly fitted or top-dose-only effect; inactive means no such curve, though single readings can be large or run the other way. On the % scale 0 is the no-effect control and ±100 the full control effect; potency means the concentration at half of the fitted maximal effect. Some of the compounds tested; most or all hits stand in other tables.

SMILES	TDP1 inh	FEN1 inhibitor
O=C(O)Cn1nnnc1SCC(=O)Nc1ccc(F)cc1F	0%	-1%
CN(C(=O)COC(=O)CNC(=O)c1ccc2ccccc2c1)c1c(N)n(Cc2ccccc2)c(=O)[nH]c1=O	1%	-5%
O=C(CS(=O)c1ccc(F)cc1)Nc1ccccc1Cl (stereo not drawn)	3%	2%
Cc1ccc(CNc2oc(-c3ccco3)nc2C#N)cc1	7%[56.1 µM]	-13%
COc1cc(C(=O)NC(c2ccccc2)c2ccccc2)cc(OC)c1C	19%	14%
Cc1cc(C)nc(NS(=O)(=O)c2ccc(N/C=C\C(=O)c3cccs3)cc2)n1	5%	-4%
COc1ccc(N(CC(=O)NCCSCc2ccco2)S(=O)(=O)c2ccccc2)cc1OC	4%	4%
Cc1ccccc1NC(=O)NCC1CCN(C(=O)OC(C)(C)C)CC1	-3%	10%
COc1ccc(S(=O)(=O)N2CCC(C(=O)Nc3ccc(S(=O)(=O)N4CCCC4)cc3)CC2)cc1OC	/	-8%
CCOc1ccc(NC(=O)C2CCCN(S(=O)(=O)c3c(C)n[nH]c3C)C2)cc1 (stereo not drawn)	/	-2%
COc1cc(/C=C2\SC(N3CCCCC3)=NC2=O)cc(OC)c1OC	/	-2%
CCN(CC)CCCN(Cc1cc2cc(OC)c(OC)cc2[nH]c1=O)C(=O)Nc1ccccc1	-2%	7%
CCOCCn1c(=NC(=O)CSCC(=O)N2CCOCC2)sc2cc(OC)ccc21	4%	-2%
Cc1nc2ccc(OC(=O)c3ccccc3)cc2s1	-1%	2%
O=[N+]([O-])c1cccc(-c2nnc(CNC3CC3)o2)c1	5%	-5%
COc1ccc(-c2nc(N)ncc2-c2csc(C)n2)c(O)c1OC	7%	-2%
Cc1nnc(Nc2ccc3c(c2)ncn3C)c2ccccc12	-3%	-14%
CC(C)=CC(=O)N1CCC(N2CCC(C(=O)NCC3CCCO3)CC2)CC1 (stereo not drawn)	4%	-8%
O=C(NCCc1ccccc1)c1ccc2nc(N3CCOCC3)sc2c1	/	-4%
Cc1ccc(N(C(=O)Cn2nnc(-c3ccc(C)o3)n2)C(C(=O)NC2CCCC2)c2ccncc2)cc1 (stereo not drawn)	/	2%

Entries of single compounds from above.
Cc1cc(C)nc(NS(=O)(=O)c2ccc(N/C=C\C(=O)c3cccs3)cc2)n1 is entered as TDP1 inh = 5%; FEN1 inhibitor = -4%
COc1cc(/C=C2\SC(N3CCCCC3)=NC2=O)cc(OC)c1OC is entered as TDP1 inh = /; FEN1 inhibitor = -2%

Additional entries:
SMILES	TDP1 inh	FEN1 inhibitor
O=C(CO/N=C/c1ccc(OC(F)F)cc1)NCc1ccco1	2%	-3%
CCCCNC(=O)c1onc(CSc2ccc(OC)cc2)c1C(=O)O	7%	15%
Cc1cc(=O)cc(C)n1-c1ccc(Cl)cc1	1%	-1%
Cc1noc(-c2ccc(C(F)(F)F)cc2)c1NC(=O)Nc1ccc(Cl)cc1	3%	-3%
O=C(Nc1nc(-c2ccc(-c3ccccc3)cc2)cs1)c1cnccn1	3%	-6%
CCCCOC(=O)CCc1c(C)[nH]c(=S)[nH]c1=O	2%	-1%
CC12CCC(C(N)=O)(C1Br)C2(C)C (stereo not drawn)	/	6%
CC(=O)c1c(C)[nH]c(C(=O)CN2C(=O)NC(C)(c3ccc4c(c3)OCO4)C2=O)c1C (stereo not drawn)	4%[56.1 µM]	5%
NC(=O)CCn1c(C(=O)c2cccc([N+](=O)[O-])c2)c2ccccc2[n+]1[O-]	/	-5%
Cc1onc(-c2ccccc2)c1C(=O)NCC(O)c1ccccc1 (stereo not drawn)	7%	-6%
CCN(CC)C(=O)CSc1nnc(-c2ccccn2)n1-c1ccccc1OC	/	2%
COC(=O)CCc1nc2ccccc2nc1OC	4%	-5%
CC(CCc1ccco1)NC(=O)Cn1ncc2c1-c1ccccc1OC2 (stereo not drawn)	8%	-20%
COc1ccc(N2CCN(C(=O)NCc3ccc(OC)c(Cl)c3)CC2)cc1	3%	21%
COc1cc2cc(C(=O)N3CCN(Cc4ccc5c(c4)OCO5)CC3)[nH]c2cc1OC	8%	-15%
CC(C)C1Oc2ccccc2N(CC(=O)N(Cc2ccccn2)CC2CCCO2)C1=O (stereo not drawn)	2%	-1%
CCSc1nnc(NC(=O)CSc2nncc(=O)n2N)s1	-6%	-10%
CC(=O)NCCc1c(C)n(Cc2ccccc2)c2ccccc12	5%	-9%
CN(C)C(=O)c1cc(C(=O)c2ccccc2Cl)c[nH]1	0%	4%
CCn1c2ccc(C)cc2c2nnc(SCCN3CCOCC3)nc21	0%	-4%

Entries listed so far that contain an NH in an aromatic ring:
SMILES	TDP1 inh	FEN1 inhibitor
CN(C(=O)COC(=O)CNC(=O)c1ccc2ccccc2c1)c1c(N)n(Cc2ccccc2)c(=O)[nH]c1=O	1%	-5%
CCOc1ccc(NC(=O)C2CCCN(S(=O)(=O)c3c(C)n[nH]c3C)C2)cc1 (stereo not drawn)	/	-2%
CCN(CC)CCCN(Cc1cc2cc(OC)c(OC)cc2[nH]c1=O)C(=O)Nc1ccccc1	-2%	7%
CCCCOC(=O)CCc1c(C)[nH]c(=S)[nH]c1=O	2%	-1%
CC(=O)c1c(C)[nH]c(C(=O)CN2C(=O)NC(C)(c3ccc4c(c3)OCO4)C2=O)c1C (stereo not drawn)	4%[56.1 µM]	5%
COc1cc2cc(C(=O)N3CCN(Cc4ccc5c(c4)OCO5)CC3)[nH]c2cc1OC	8%	-15%
CN(C)C(=O)c1cc(C(=O)c2ccccc2Cl)c[nH]1	0%	4%

Other structures follow.
SMILES	TDP1 inh	FEN1 inhibitor
COc1ccccc1NC(=O)C(C)OC(=O)/C=C/c1ccc2ccccc2n1 (stereo not drawn)	-2%	6%
O=C(Nc1ccccc1C(=O)NCc1cccnc1)c1ccco1	7%	-1%
O=C1CC(Cc2ccc(Br)cc2)C(=O)N1c1ccccc1 (stereo not drawn)	1%	10%
COC(=O)c1c(C)[nH]c(C=O)c1-c1ccccc1	7%	0%
O=C(O)Cc1ccc(NS(=O)(=O)c2c(Cl)cccc2Cl)cc1	2%	-2%
C=CCn1c(SCC(=O)N(CCOC)c2c(N)n(CCCC)c(=O)[nH]c2=O)nnc1-c1ccc(Cl)cc1	-1%[0.505 µM]	-15%
COc1ccc(/C=C(\NC(=O)c2ccc(C)cc2)C(=O)Nc2ccc(C(=O)O)cc2)cc1	/	0%
COc1ccc2c(CC(=O)OCC(=O)Nc3ccc4c(c3)OCO4)coc2c1	9%	-11%
CSc1ncccc1C(=O)OCc1cccc([N+](=O)[O-])c1	4%	2%
Cc1cc(C(=O)Cn2cc([N+](=O)[O-])ccc2=O)c(C)n1CC1CCCO1 (stereo not drawn)	7%	-2%
Cc1ccc(NC(=O)C2CCCN(C(=O)c3ccc(Cl)cc3)C2)c(C)c1 (stereo not drawn)	7%	-1%
ClCCCc1cn(C[C@H]2CC[C@@H]([C@@H]3CC[C@H](Cn4cc(CCCCl)nn4)O3)O2)nn1	/	15%
O=C(Cn1nc(Cc2cccnc2)c2ccccc2c1=O)N1CCN(c2ccccn2)CC1	5%	-1%
CCOC(=O)/C(=N/Nc1ccccc1)Sc1nnnn1-c1ccc(C)cc1	0%	4%
COc1ccc(NC(=O)C(C)Oc2ccc(/C(C)=N\O)cc2)cc1 (stereo not drawn)	1%	9%
Cc1nc2ccccc2c(C)c1C(=O)c1ccc(F)cc1	-1%	-1%
CCOC(=O)n1c(=O)oc2cc(S(=O)(=O)N3CCOCC3)ccc21	3%	1%
O=C(Nc1c(C(=O)N2CCN(c3ccccn3)CC2)oc2ccccc12)c1cccc([N+](=O)[O-])c1	7%	-5%
C=CCSc1nnc(-c2cc3c(C(F)(F)F)nn(C)c3s2)n1C	6%	5%
COCC(=O)Nc1sc2c(c1C(=O)OC)C(C(=O)OC)CC2 (stereo not drawn)	5%	-2%
COc1ccc(S(=O)(=O)N2CCN(Cc3ccccc3)CC2)cc1	5%	-8%
Cc1cccc(CCNC(=O)CCNC(=O)Cn2ccc3ccccc3c2=O)c1	-3%	-2%
CSc1ccccc1C(=O)N1CCC(CCC(=O)NC2CC2)CC1	3%	-14%
N#Cc1cc2ccccc2nc1SCC(=O)NC1CC1	2%	0%
O=C(N/N=C/c1ccc(OC(=O)c2ccccc2Cl)cc1)c1ccc(O)cc1	5%	-1%
CCCc1nnc(NC(=O)CNc2ccc(F)cc2)s1	1%	-3%
CC(=O)Oc1ccc(N2C(=O)CC(N3CCOCC3)C2=O)cc1 (stereo not drawn)	-2%	1%
Cn1nnc(NC(=S)NC(=O)c2cccc3ccccc23)n1	5%	2%
CC1(c2ccccc2)NC(=O)N(CC(=O)Nc2ccc([N+](=O)[O-])cc2)C1=O (stereo not drawn)	-1%	-8%
CCOc1cc(-c2nc(C)c(C(C)=O)n2O)ccc1OCC(=O)Nc1ccc(F)cc1	7%	18%
Cc1cccc(OCCNC(=S)NC(=O)c2cccnc2)c1	-1%	-12%
Cc1ccc(/C=C2\Oc3cc(OC(=O)N4CCOCC4)ccc3C2=O)cc1	-2%	-2%
CCOC(=O)c1ccc(OC(=O)CCCCCN=C(N)N)cc1	16%[56.1 µM]	-5%
CN(C)CCNC(NC(=O)c1cccs1)C(Cl)(Cl)Cl (stereo not drawn)	8%	-3%
O=C(NCCC1=CCCCC1)c1ccc(Cl)c([N+](=O)[O-])c1	3%	6%
CCCNCC(O)Cn1c2ccccc2n2c(=O)cc(C)c(C#N)c12 (stereo not drawn)	4%	-12%
COCCC(=O)N1CCC(Oc2ccc(C(=O)N(C)Cc3cc(C)no3)cc2)CC1	2%	5%
Cc1cccc(NC(=O)C2(c3ccccc3)CCOCC2)c1	/	-2%
COc1ccccc1-n1c(SC(C)C(=O)NCC2CCCO2)nc2cc(Cl)ccc2c1=O (stereo not drawn)	-7%	-10%
Cc1ccc(NC(=O)CSc2nnnn2C)cc1S(=O)(=O)N(C)C	-2%	-2%
Cn1c2ccccc2c2c3c(c4c5ccccc5n(CCC#N)c4c21)CNC3=O	9%	/
CC(C)N(NC(=O)c1cccc2ccccc12)C(C)C	0%	-4%
Cc1ccc(S(=O)(=O)CCC(=O)Nc2ccc(F)cc2)cc1	-10%	10%
CCOC(=O)c1c(NC(=O)c2ccc(S(=O)(=O)N(C)CC3CCCO3)cc2)sc2c1CCN(C)C2 (stereo not drawn)	1%	-5%
COCCNC(=O)C(c1ccc(C)cc1)N(Cc1ccco1)C(=O)CCC(=O)Nc1ccccn1 (stereo not drawn)	12%	9%
Cc1ccc(NC(=O)COc2ccc(Br)cc2CO)cc1	4%	7%
O=C(CC(Nc1ccccc1)c1ccccc1)C1CC1 (stereo not drawn)	0%	2%
COc1cccc(CN2CC(C(=O)NCc3ncc(C)[nH]3)CCC2=O)c1 (stereo not drawn)	2%	0%
COc1ccc(S(=O)(=O)N(C)C)cc1NC(=O)COC(=O)CC1CCCC1	-5%	-9%
CCOC(=O)c1cc(C)n(S(=O)(=O)c2ccc(C)cc2)c1C	1%	-14%
CCOc1cc(C(=O)NC(C)CCc2ccccc2)cc(OCC)c1OCC (stereo not drawn)	/	22%
Brc1ccc(-c2nc(-c3ccncc3)no2)cc1	/	8%
Clc1ccccc1OCCCCN1CCNCC1	/	-5%
O=C(O)c1cc([N+](=O)[O-])ccc1C(=O)Nc1ccccc1	0%	-2%
CC(C)OCCCN1C(=O)c2ccccc2C1C(=O)NC1CCCCC1 (stereo not drawn)	2%	5%
Cc1ccc(C2Nc3ccccc3-c3nc4ccccc4n32)o1 (stereo not drawn)	-2%	-9%
Cc1ccc(CNC(=O)CN2C(=O)CSc3ccc(S(=O)(=O)N4CCCCC4)cc32)cc1	3%	-21%
O=c1oc2ccc(Br)cc2cc1-c1nc2ccccc2o1	0%	-5%
CC(=O)c1ccc(NC(=O)/C(=C\c2cccs2)NC(=O)c2ccco2)cc1	0%	9%
CC(=O)N/C(=C\c1ccc(F)cc1)C(=O)N(C)C	0%	-3%

(continued)
SMILES	TDP1 inh	FEN1 inhibitor
COc1cccc(Oc2ccc(N)cn2)c1	7%	-5%
CSc1ccc(S(=O)(=O)Nc2ccc3c(c2)OCCO3)cc1	8%	7%
CCC(C)Nc1nc2c(c(=O)n(C)c(=O)n2C)n1C (stereo not drawn)	5%	4%
CCOc1ccc(CN2CCN(C(=O)c3cccc4ccccc34)CC2)cc1	/	-15%
Cc1ccc(C)c(NC(=O)C2CCC(C)(C(=O)O)C2(C)C)c1 (stereo not drawn)	10%	-12%
CN(CC(=O)NC1CCCCC1)S(=O)(=O)c1cccc2cccnc12	0%	3%
CC1CC(C)(C)NC(=S)N1CCCC(=O)NCCc1ccc(Cl)cc1 (stereo not drawn)	5%	5%
Cc1cccc(NC(=O)CSc2nc3nc(C)cc(C)n3n2)c1	-9%	6%
Cc1ccc(OCCC(=O)N(CC(=O)Nc2ccccc2C(F)(F)F)Cc2ccco2)cc1	-12%[0.505 µM]	-9%
Cc1ccccc1C(=O)NNC(=O)c1ccoc1C	4%	-1%
CCCCCCCCCC(=O)N/N=C/c1ccc(C)s1	-6%	?
O=C(Nc1cccc(/C=C/c2ccccn2)c1)c1cc(Cl)ccn1	1%	-2%
CCOC(=O)N/N=C(/c1ccccc1)C1CCCCC1	5%	0%
CCOC(=O)c1cc2ccc(OC)c(OC)c2c(=O)s1	2%	6%
O=C(NCC1CCN(Cc2ccccc2Cl)CC1)Nc1cccc(Cl)c1	-3%	4%

Some of these compounds in order of their number in TDP1 inh, falling.
compound | TDP1 inh
COc1cccc(Oc2ccc(N)cn2)c1 | 7%
CC1CC(C)(C)NC(=S)N1CCCC(=O)NCCc1ccc(Cl)cc1 (stereo not drawn) | 5%
O=C(NCC1CCN(Cc2ccccc2Cl)CC1)Nc1cccc(Cl)c1 | -3%
